# CBX7 inh: CBX7 inhibition, primary AlphaScreen; O95931; AlphaScreen His6-CBX7 / biotin-H3K27me3 peptide binding; active compounds read low; normalised signal (fraction of DMSO) (no concentration beside the values); 66,000 compounds, 1.1% hits; AID 1224903; in the data active = normalised signal below about 0.5;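 note: 100 nL library stock added to about 20 µL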
# Target sequence (O95931 whole entry, looked up): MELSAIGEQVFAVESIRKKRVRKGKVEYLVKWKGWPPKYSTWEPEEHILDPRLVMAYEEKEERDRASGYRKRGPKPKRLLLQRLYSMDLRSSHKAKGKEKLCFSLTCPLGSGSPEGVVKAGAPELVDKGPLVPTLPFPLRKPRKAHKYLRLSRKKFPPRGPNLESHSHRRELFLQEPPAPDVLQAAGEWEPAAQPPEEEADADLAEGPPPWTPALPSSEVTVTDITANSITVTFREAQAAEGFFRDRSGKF
# CBX7 inh z-score: recorded beside CBX7 inh, whose call it bears; z-score; measured here: z-score of CBX7 signal; some inactives read as strong as hits; reference of the scale not given here;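 same signal on another scale; lower means less binding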
# * hit, by the source's call. These rows are one share of the data; count on the stated rates, not on these rows.
SMILES,CBX7 inh,CBX7 inh z-score
CCC(C)c1ccccc1OCC(=O)Nc1nccs1 (stereo not drawn),1.04,0.322
O=C(C1CCC1)N1CCc2cc(S(=O)(=O)Nc3ccc(OC(F)(F)F)cc3)ccc21,0.99,-0.349
COc1ccc(-c2nc(CSCC(=O)N3CCN(Cc4ccc5c(c4)OCO5)CC3)c(C)o2)cc1,1,-0.00174
Cc1cccc(CN2C(=O)c3ccccc3Sc3ccc(C(=O)NCc4ccc(F)cc4)cc32)c1,0.974,-1.15
O=C(NCc1ccc2c(c1)OCO2)C1CCN(S(=O)(=O)c2cccs2)CC1,0.993,-0.166
COc1ccc(-c2cc(C(F)(F)F)n3nc(C(=O)NCC(C)C)c(Cl)c3n2)cc1,1,0.0143
CCN1CCCC1CNC(=O)c1sc2ncn(CC(=O)Nc3ccc(C)c(Cl)c3)c(=O)c2c1C (stereo not drawn),1.02,0.563
C=C(C)Cn1c(C2CC(=O)N(c3ccc(C)c(C)c3)C2)nc2ccccc21 (stereo not drawn),1.12,0.846
CCOC(=O)c1c(NC(=O)COc2ccc(Br)cc2Br)sc2c1CCCC2,0.936,-0.687
COc1ccc2c(c1)CCc1c(C(=O)Nc3cccnc3Cl)noc1-2,1.03,0.57
Cc1cc(Nc2ccc(F)cc2F)n2ncnc2n1,1.01,0.233
CC(=O)Oc1ccc(C(=O)Nc2nnc(COc3ccccc3)s2)cc1,1.12,0.507
O=C(Cc1ccc(NC2=NC3CS(=O)(=O)CC3S2)cc1)NC1CCCC1 (stereo not drawn),0.853,-1.6
Cc1ccc(S(=O)(=O)c2cn(CC(=O)Nc3cccc(Cl)c3)c3ccccc3c2=O)cc1,1.04,0.543
CSc1oc(-c2ccccc2)nc1S(=O)(=O)c1ccc(F)cc1,0.966,-0.28
Cc1ccc(Cn2nnc3c(=O)n(CC(=O)NCc4ccccc4Cl)cnc32)cc1,0.871,-2.11
COc1cc2[nH]c(=O)n(CCC(=O)N3CCN(Cc4ccc5c(c4)OCO5)CC3)c(=O)c2cc1OC,1.02,0.675
COC(CNC(=O)CN1C(=O)COc2ccc(S(=O)(=O)N3CCCCCC3)cc21)OC,0.958,-1.36
Cc1ccc(NC(=O)CSc2nc3nc(C)c(Cc4ccccc4)c(C)n3n2)cc1,0.893,-0.433
Cc1cc2c(cc(C(=O)NC3CCC(C)CC3)n2Cc2ccc(Cl)cc2)o1 (stereo not drawn),1.01,0.264
O=C1CC(c2ccccc2)CN1C(=O)c1cccnc1 (stereo not drawn),1.01,0.385
Cc1cc(NC(=O)Cc2c(C(=O)O)[nH]c3ccccc23)no1,1.04,0.904
O=C(Nc1ccccc1-c1nc2ccccc2s1)c1cc(Cl)cc(Cl)c1,0.954,-1.28
COc1ccc(Nc2nc3ccc(C)cc3nc2-n2nc(C)cc2C)cc1Cl,2.14,40.8
CCN(CC)S(=O)(=O)c1ccc2c(c1)N(CC(=O)NC1CCC(C)CC1)C(=O)CS2 (stereo not drawn),1.05,1.85

# 5 entries out of the list, arranged by SMILES length, smallest number first.
SMILES,CBX7 inh,CBX7 inh z-score
CCC(C)c1ccccc1OCC(=O)Nc1nccs1 (stereo not drawn),1.04,0.322
O=C(Nc1ccccc1-c1nc2ccccc2s1)c1cc(Cl)cc(Cl)c1,0.954,-1.28
Cc1ccc(Cn2nnc3c(=O)n(CC(=O)NCc4ccccc4Cl)cnc32)cc1,0.871,-2.11
COc1ccc(-c2cc(C(F)(F)F)n3nc(C(=O)NCC(C)C)c(Cl)c3n2)cc1,1,0.0143
CCN(CC)S(=O)(=O)c1ccc2c(c1)N(CC(=O)NC1CCC(C)CC1)C(=O)CS2 (stereo not drawn),1.05,1.85

# (list continues)
SMILES,CBX7 inh,CBX7 inh z-score
COc1ccc(-c2[nH]ncc2-c2ccc(Br)cc2)c(O)c1,0.603,-8.45
CCCOc1ccc(C(=O)Nc2ncc(Cc3ccc(Cl)cc3)s2)cc1,1.06,1.34
CCc1ccc(NC(=O)N(Cc2ccc3c(c2)CCCN3CC)C2CCCC2)cc1,0.339*,-10.3*
COc1ccc(Nc2cc(C(=O)NCCc3ccc(Cl)cc3)c3ccccc3n2)c(OC)c1,0.852,-2.27
CCN1CCCC1CNC(=O)CS(=O)(=O)Cc1nc(-c2ccc(C)cc2)oc1C (stereo not drawn),1.02,0.0475
CCOc1ccc2c(c1)c(=O)c(S(=O)(=O)c1ccc(C)cc1)cn2CC(=O)Nc1ccc(C)cc1,0.824,-2.53
CCCN1CCN(C(=O)c2sc3nc(C)nc(N4CCCCC4C)c3c2C)CC1 (stereo not drawn),1.02,0.504
CCOc1cccc(N2C(=O)CC(N3CCCCC3)C2=O)c1 (stereo not drawn),1.17,1.52
COc1ccc(NC(=O)c2cc(C)on2)c(OC)c1,1.05,0.833
CC(C)c1ccc(-c2csc(Nc3ncccn3)n2)cc1,0.959,-1.06
COc1ccc(N2Cc3cccc(C(=O)NCCc4ccccc4)c3C2=O)cc1,0.929,-1.31
NC(=O)c1ccccc1NC(=O)c1ccccc1Cl,1.05,2.16
CCOc1ccc2nc(N3CCCC(C(=O)Nc4cccc(Cl)c4C)C3)sc2c1 (stereo not drawn),1.08,2.15
Cc1ccc2nc(-c3ccc(NC(=O)CC4OCCN(C)C4=O)cc3)sc2c1 (stereo not drawn),1.15,1.62
CC(O)Cc1nsc(NC(=O)c2ccccc2Cl)n1 (stereo not drawn),1.13,1.04
O=C(CSc1nnc(COc2ccc(C3CCCCC3)cc2)n1-c1ccccc1)c1ccc(Br)cc1,0.951,-1.74
Cc1cc(C)c(Cc2c(C)nc3c(C(=O)NCc4cccs4)cnn3c2C)c(C)c1,0.981,-0.552
Cc1cc(C)c(NC2c3ccccc3C(=O)N2c2cccnc2)c(C)c1 (stereo not drawn),0.97,-1.01
Cc1ccc2oc(-c3ccc(C)c(NC(=O)c4ccccc4)c3)nc2c1,0.934,-0.836
O=C(CCc1nc2ccccc2n(Cc2ccccc2F)c1=O)NC1CCCCCCC1,1.09,0.951
COc1cc(OC)cc(-c2cc3nc(C)c(CCC(=O)NCCN4CCCC4)c(C)n3n2)c1,1.02,0.535
Cc1ccccc1-c1nnn(CC(=O)Nc2ccc(OC(F)(F)F)cc2)n1,1.23,3.85
COCCCNC(=O)c1ccc2c(c1)N(Cc1cc(C)ccc1C)C(=O)c1ccccc1S2(=O)=O,0.983,-0.488
Cc1cccc(NC(=O)c2ccccc2NC(=O)c2ccccc2F)c1,1.02,0.562
CCOc1ccc(-n2c(C)nc3cc(C(=O)NCC4CCCO4)ccc32)cc1 (stereo not drawn),0.96,-0.973

# One compound at a time, from the list above. Order of values: CBX7 inh	CBX7 inh z-score
# Shown for CCOc1ccc(-n2c(C)nc3cc(C(=O)NCC4CCCO4)ccc32)cc1 (stereo not drawn) : 0.96	-0.973
# Shown for CCc1ccc(NC(=O)N(Cc2ccc3c(c2)CCCN3CC)C2CCCC2)cc1 : 0.339*	-10.3*

# Other results
SMILES,CBX7 inh,CBX7 inh z-score
COc1ccc(C(=O)CSc2nnc(Cc3cc(=O)[nH]c(=O)[nH]3)n2-c2ccc(OC)cc2)cc1,0.849,-2.31
Cc1nc2ncnn2c(C)c1CCC(=O)NCc1ccc2c(c1)OCO2,1.09,1.78
Cc1ccc(CN2C(=O)c3ccccc3Sc3ccc(C(=O)O)cc32)cc1,1.12,3.11
COc1ccc(Nc2nnc(C)c3ccccc23)cc1C(N)=O,1.01,0.0172
CCOc1ccc(NC(=O)Cn2nc(-c3ccccc3)c3cc(Cl)ccc32)cc1,0.993,-0.257
Cc1ccc(OCC(O)Cn2cnc3ccccc32)cc1 (stereo not drawn),0.851,-0.586
CCc1ccc(NS(=O)(=O)c2cn(C)cn2)cc1,1.15,4.52
CCOc1ccccc1NC(=O)CCc1nc(-c2ccc(C)cc2)no1,1.12,3.46
O=C(NCCCN1CCCCC1)c1ccc2nc(N3CCOCC3)sc2c1,1.35,3.27
COc1ccc(C(=O)CC2(O)C(=O)Nc3ccc(Br)cc32)cc1 (stereo not drawn),0.994,-0.166
Cc1ccc(NC(=O)Nc2cc3sccc3n2C)cc1C,0.978,-0.639
CCOc1ccccc1N(CC)C(=O)Cn1nc(Cc2ccncc2)c2ccccc2c1=O,1.02,0.163
Cc1ccccc1C(=O)Nc1c(C(=O)Nc2cccc(F)c2)oc2ccccc12,1.01,0.152
Cc1ccc(Nc2nc3nonc3nc2NC2C3CC4CC(C3)CC2C4)cc1 (stereo not drawn),0.915,-2.27
Cc1ccc(F)cc1NC(=O)Cn1cnc2sc(C)c(C)c2c1=O,1.11,1.35
CCOC(=O)C1CCN(C(=O)c2cc3sc(Cl)cc3n2C)CC1,1.01,0.289
Cc1ccn2c(NC(=O)C(C)(C)Oc3ccc(Cl)cc3)c(-c3cccs3)nc2c1,1.05,0.463
Cc1ccccc1NC(=O)C1CCN(C(=O)c2cnn(-c3ccccc3)c2-n2cccc2)CC1,1.33,0.752
Cc1ccc(-c2nc3ccccc3o2)cc1NC(=O)c1cccc(Cl)c1,1.36,1.47
COc1ccc(C2=NOC(C(=O)NC3CCCC3)C2)cc1 (stereo not drawn),1.1,1.33
Cc1ccc(-c2nn(C)c(=O)c3ccccc23)cc1S(=O)(=O)N1CCN(C)CC1,1.13,0.455
CCOC(=O)N1CCC(Nc2c(N3CCN(CC)CC3)c(=O)c2=O)CC1,1,-0.00412
CCc1ccc2oc(-c3ccc(NC(=O)c4ncn[nH]4)cc3)nc2c1,0*,-17.3*
COc1ccc(F)cc1CN1CCN(c2ncnc3sc4c(c23)CCCC4)CC1,0.998,-0.0736
CCOc1ccc2nc(C)cc(Nc3ccc(OC)cc3)c2c1,1.11,1.53

# An excerpt of these results, with values under each structure:
# Each structure is followed by: CBX7 inh | CBX7 inh z-score
- COc1ccc(C2=NOC(C(=O)NC3CCCC3)C2)cc1 (stereo not drawn)
    1.1 | 1.33
- Cc1ccc(-c2nn(C)c(=O)c3ccccc23)cc1S(=O)(=O)N1CCN(C)CC1
    1.13 | 0.455
- CCOC(=O)N1CCC(Nc2c(N3CCN(CC)CC3)c(=O)c2=O)CC1
    1 | -0.00412
- CCc1ccc2oc(-c3ccc(NC(=O)c4ncn[nH]4)cc3)nc2c1
    0* | -17.3*
- COc1ccc(F)cc1CN1CCN(c2ncnc3sc4c(c23)CCCC4)CC1
    0.998 | -0.0736
- CCOc1ccc2nc(C)cc(Nc3ccc(OC)cc3)c2c1
    1.11 | 1.53

# Further structures follow:
SMILES,CBX7 inh,CBX7 inh z-score
O=C(CSc1nnc2c(n1)[nH]c1ccccc12)Nc1ccc(Cl)cn1,0.992,-0.11
Cc1cccc(NC(=O)Cn2cc(S(=O)(=O)c3ccc(Cl)cc3)c(=O)c3cc(C)ccc32)c1,1.05,0.881
COc1ccc(C(=O)Nc2c3c(nn2-c2ccccc2C)CSC3)cc1,0.943,-1.04
Cc1ccc(-c2nnc(SCC(=O)N3CCc4ccccc43)o2)cc1,1.02,0.0492
CC(C)N(C)CC#CC(O)(c1ccccc1)c1ccccc1,1.24,1.91
O=C(c1cc(Nc2ccccc2)nc2ccccc12)N1CCCC1,1.09,2.57
Cc1cccc(NC(=O)CSc2nnc(CNC(=O)c3cccs3)o2)c1,0.993,-0.316
Cn1cnnc1SCC(=O)Nc1ccc(Br)c2cccnc12,0.657,-0.405
CCc1ccc(N(CC)C(=O)Cn2nc(Cc3cccnc3)c3ccccc3c2=O)cc1,0.968,-1.06
O=C(O)CCC(=O)N1CCc2cc(S(=O)(=O)Nc3ccc(Cl)cc3)ccc21,1.09,1.47
COc1ccc(-c2cc(C(F)(F)F)nc(N3CCCCCC3)n2)cc1,1.56,6.15
CCN(CC)C(=O)c1cn(CC)c(=O)c2cc(OC)c(OC)cc12,1.13,1.08
Cc1c2cnn(CC(=O)NCc3cccnc3)c(=O)c2c(C)n1Cc1ccccc1,0.79,-1.6
Cc1ccc2cc(CCNC(=O)c3ccc(F)cc3)c(=O)[nH]c2c1C,1.06,1.57
CCCN(C(=O)Cn1nc(Cc2ccncc2)c2ccccc2c1=O)c1ccc(OCC)cc1,0.968,-0.66
O=C(Cn1ncc2ccsc2c1=O)NCCN1CCOCC1,1.02,0.512
Cc1c(C(=O)Nc2ccc(F)cc2F)sc2ncn(CC(=O)N3CCCCC3)c(=O)c12,1.12,0.78
COc1ccc(OC)c(C(=O)c2oc3ccccc3c2NC(=O)CN2CCCC2)c1,0.768,-0.914
COc1ccc(-c2cc(-c3ccc(F)cc3)nc(N3CCCCC3)n2)cc1,2.69,16.2
C=CCC1(O)CC(c2ccccc2)NC(c2ccccc2)C1CC (stereo not drawn),0.951,-0.173
COc1ccc(-n2nc3ccc(NC(=O)c4cccc(Br)c4)cc3n2)cc1,0.93,-0.84
CCN1CCN(c2cc(C)c3cc(NC(=O)c4ccc5c(c4)OCO5)ccc3n2)CC1,0.996,-0.0287
COc1ccccc1CNC(=O)c1ccc2c(c1)N(C)C(=O)CS2=O (stereo not drawn),1.02,0.457
COc1ccccc1-n1cnc2cc(C(=O)NC3CCCC3)ccc21,1.01,0.158
CCc1ccccc1N(C)C(=O)c1cn(CC)c(=O)c2cc(OC)c(OC)cc12,0.845,-4.04
SMILES,CBX7 inh,CBX7 inh z-score
COc1ccc(NC(=O)C2(S(=O)(=O)c3ccc(C)cc3)CC2)cc1Cl,1.03,0.45
Cc1cc(C)c(S(=O)(=O)NCCc2c(C)[nH]c3ccc(OC(F)(F)F)cc23)c(C)c1,0.733,-0.265
Cc1ccc(-c2noc(CN3CCOCC3)n2)cc1,1.33,2.62
COc1ccc(-c2nnc(NC(=O)c3ccc(C(=O)c4ccccc4)cc3)s2)c(OC)c1,1.03,1.19
Cc1ccc(C)c2c(N)c3c(nc12)CC(C)(C)CC3=O,1.34,2.44
COCc1nc2ccccc2n1CCCCOc1cccc(C)c1,1.02,0.966
CCCN1Cc2cccc(C(=O)NCc3ccccc3Cl)c2C1=O,1.11,1.44
O=C(NC1CCCC1)c1ccc2c(c1)N(Cc1c(F)cccc1Cl)C(=O)CS2,0.857,-1.57
O=C(NCCc1ccc(Cl)cc1)C1CC(=O)N(C2CCCCCC2)C1 (stereo not drawn),1.02,0.496
CCOC(=O)N1CCN(C(=O)c2cc(-c3ccc(OCC)cc3)nc3ccccc23)CC1,0.967,-0.611
COc1ccc2nc(N3CCC(C(=O)NCc4cccs4)CC3)sc2c1,1.04,0.6
COc1cccc(-c2cc(C(F)(F)F)nc(N3CCCCC3)n2)c1,1.62,29.4
